VCAM-1 rise – boosters of cytokine-driven VCAM-1 levels – cell-based, plate reader, pooled HUVEC, TNFa stimulus (AID 455); HUVEC TNFa-induced VCAM-1 immunofluorescence, plate reader; numbers were filed only for top-ranked candidate wells; augmentation, % at 5 µM; 10,000 tested, 0.2% active;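 active = a compound raising TNF-alpha-driven VCAM-1 surface staining, with its hit status upheld on visual or statistical review; inactive = the rest, including hits rejected on review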;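 note: 0% = TNFa with vehicle and 100% = strongest image-checked hit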
Proteasome disasm – blocks ATP-dependent breakdown of the yeast 26S proteasome; anti-FLAG beads, GFP-proteasome disassembly, flow cytometry; inhibition of disassembly, % (concentration not given with the values); 24,000 tested, 0.2% active; AID 751;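 active = above 40%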;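 note: plate controls were ATP control with full disassembly for no effect and ATP-gamma-S intact proteasomes for full effect; higher percent means more bead fluorescence retained so stronger block of disassembly; stock transfer was 100 nL into about 10 µL; wells with too few beads may also be inconclusive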
Active calls of the source: *; i = inactive; / = no result given. This is a subset, so the mix of outcomes need not match the whole.

Each structure is followed by: VCAM-1 rise, Proteasome disasm
- COc1ccc(OC)c(S(=O)(=O)NCc2cn3cccc(C)c3n2)c1
    /, -0.5
- Cc1nn(C)c(C)c1NC(=O)CSc1nc(Cc2ccccc2)nc2c1cnn2-c1ccccc1
    i, -1.5
- CCC1(C)COC2(OC1)C(=O)Nc1ccccc12 (stereo unspecified)
    /, 0.9
- N#Cc1nn(-c2ccccc2)nc1N1CCCCC1
    /, 0.1
- O=C(NCCN1CCCCCC1)c1ccc(CS(=O)(=O)c2ccc(Br)cc2)o1
    i, 4.1
- Cc1ccc(S(=O)(=O)N2CCCC(C(=O)NCCCN3CCCCC3C)C2)cc1 (stereo unspecified)
    /, 2.1
- Cc1c(C(=O)NCc2ccccc2)oc2ccc(S(=O)(=O)N3CCCC3)cc12
    /, -0.8
- O=C(C1CCN(S(=O)(=O)c2cccc3cccnc23)CC1)N1CC=C(c2ccccc2)CC1
    /, -1.7
- Nc1nonc1N1CCCCC1
    i, 1.8
- CCOC(=O)c1ccccc1NC(=O)CN1C(=O)CCS(=O)(=O)c2ccccc21
    /, 0.1
- Cc1ccc(C)n1-n1c(C)nc2sc(-c3ccccc3)cc2c1=O
    i, -1.4
- O=C(COC(=O)Cc1cccc(C(F)(F)F)c1)NCC1CCCO1 (stereo unspecified)
    i, -2.1
- COc1ccc(CCN(C)C(=O)C2CCCN(Cc3ccc(OC)c(OC)c3)C2)cc1OC (stereo unspecified)
    /, -0.1
- Clc1ccc2nc(N3CCCCC3)[nH]c2c1
    i, -1.0
- CCCCN(C)S(=O)(=O)c1cc(Br)cc2c1N(C(=O)C1CC1)CC2
    /, 1.1
- CSc1nc2ccccc2c(=O)n1N
    i, -1.1
- CC1CCCCC1NC(=O)C1CCN(C(=O)NC2CCCCC2)CC1 (stereo unspecified)
    i, 0.4
- CC1=C(C(=O)Nc2ccccn2)C(c2ccc(N(C)C)cc2)n2ncnc2N1 (stereo unspecified)
    /, 0.4
- O=C(C1CCN(S(=O)(=O)c2cnc[nH]2)CC1)N1CCc2ccccc2C1
    /, -1.7
- CCC(=O)c1ccc(OCCN2CCOCC2)cc1
    i, 0.5
- CCn1c(N)c(C(=O)NCc2ccco2)sc1=S
    /, 0.4
- CCCNS(=O)(=O)c1cccc2cccnc12
    /, 0.7
- CCOC(=O)CSc1nc2c(c(-c3ccc(C)o3)c1C#N)CCCC2
    i, 0.5
- CN(C)c1ccc(-c2nn3c(-c4ccc(Cl)cc4Cl)nnc3s2)cc1
    i, 1.3
- O=C(c1ccco1)N1CCN(c2nc3ccccc3n3nnnc23)CC1
    /, 1.3
- COc1ccc(OCCCC(=O)Nc2nncs2)cc1
    i, 2.6
- NS(=O)(=O)c1ccc(CCNC(=O)CCC2COc3ccccc3O2)cc1 (stereo unspecified)
    i, -1.3
- COc1nc(N(C)C)nc(-n2nnc(C(C)=O)c2C)n1
    /, -1.8
- Cc1ccc(S(=O)(=O)Nc2cc(C(=O)N3CCOCC3)ccc2N2CCCCC2)cc1
    /, 0.0
- Nc1ccc2nc3n(c(=O)c2c1)CCC3
    /, -0.2
- COC(=O)c1ccc2c(=O)n(CC3CCCO3)c(SCC(=O)Nc3ccccc3OC)nc2c1 (stereo unspecified)
    /, -0.7
- COc1ccc(NC(=O)C2CCN(Cc3cnn(-c4ccccc4)c3-n3cccc3)CC2)cc1OC
    /, 1.2
- CN(CC(=O)O)S(=O)(=O)c1cc(Cl)ccc1Cl
    i, -4.6
- CN(C(=O)c1cc2sccc2n1C)C1CCCCC1
    i, 0.7
- O=C(NCc1cccc(F)c1)c1noc2c1CCCC2
    /, 2.3
- FC(F)(F)c1cc(-c2ccco2)nc(NCc2cccnc2)n1
    /, 3.3
- CCOC(=O)c1oc2ccc(S(=O)(=O)n3nc(-c4ccc(OC)cc4)cc3N)cc2c1C
    /, 1.1
- Cc1c(C(=O)O)oc2ccc(S(=O)(=O)N3CCC(C)CC3)cc12
    /, 3.0
- CC(=O)c1ccc(NC(=O)C2CCCN2S(=O)(=O)c2ccc(C)cc2)cc1 (stereo unspecified)
    /, 0.2
- O=C(CSc1nnc(CNC(=O)c2ccccc2F)o1)c1ccccc1
    /, 0.4

Complete entries, looked up by structure. Screens in order: VCAM-1 rise | Proteasome disasm
COc1ccc(OCCCC(=O)Nc2nncs2)cc1 is listed with i | 2.6
Cc1ccc(S(=O)(=O)Nc2cc(C(=O)N3CCOCC3)ccc2N2CCCCC2)cc1 is listed with / | 0.0
COc1nc(N(C)C)nc(-n2nnc(C(C)=O)c2C)n1 is listed with / | -1.8

Next part
Each structure is followed by: VCAM-1 rise, Proteasome disasm
- O=C(Nc1ccc2c(c1)OCO2)c1ccc(Br)c(S(=O)(=O)N2CCCC2)c1
    i, 2.5
- CCOC(=O)c1cc2sccc2n1Cc1ccccc1
    i, 0.1
- CCOc1ccccc1NC(=O)c1nc[nH]c1C(=O)Nc1ccccc1OCC
    /, 5.4
- O=C1CC(c2ccccc2)C(C(=O)Nc2ccccc2F)N1 (stereo unspecified)
    /, 0.4
- O=C(C1CCN(C2CC(=O)N(c3ccc(F)cc3)C2=O)CC1)N1CCOCC1 (stereo unspecified)
    i, -1.2
- c1ccc(Cc2nn3c(Cn4cnc5ccccc54)nnc3s2)cc1
    i, -3.8
- c1ccc(Nc2nc(-c3cccnc3)cs2)nc1
    /, -0.3
- COc1ccc(N=c2scc(-c3ccc(S(=O)(=O)N4CCOCC4)cc3)n2CCCO)cc1
    i, -0.2
- Cc1ccc2oc3c(c(=O)c2c1)C(c1cccc(O)c1)N(c1ccccn1)C3=O (stereo unspecified)
    /, 0.1
- COc1cc(Cn2c(-c3nonc3N)nc3ccccc32)ccc1C
    i, 1.1
- O=C(Nc1ccccc1C(F)(F)F)N1CCC(n2c(=O)[nH]c3ccccc32)CC1
    /, 0.9
- Cc1ccc(NC(=O)CCCC(=O)O)c(Br)c1
    /, -1.9
- Cc1cc(C)n2nc(CC(=O)NC3CCCCCC3)nc2n1
    /, 0.1
- CC1Cc2ccccc2N1Cc1cc(=O)n2ccsc2n1 (stereo unspecified)
    i, 0.3
- COc1ccc(NC(=O)c2nc[nH]c2C(=O)Nc2ccccc2C)cc1
    /, -0.5
- O=C(C1CCN(S(=O)(=O)c2cnc[nH]2)CC1)N1CCN(Cc2ccc3c(c2)OCO3)CC1
    /, -0.1
- CC1=Nn2c(nnc2-c2ccc(F)cc2)SC1
    i, -0.9
- N#Cc1c(N2C(=O)C3C4C=CC(C4)C3C2=O)sc2c1CCC2 (stereo unspecified)
    i, -1.2
- O=C(CSc1nnc(-c2c[nH]c3ccccc23)n1-c1ccc(F)cc1)NCc1ccco1
    /, -2.8
- COc1ccc(-n2c(SCc3ccc(C#N)cc3)nnc2-c2ccccn2)cc1
    i, -1.0
- CCOC(=O)c1cn(CC(=O)Nc2ccc3c(c2)OCCO3)nn1
    /, 0.2
- CCCCN(CC)CCNS(=O)(=O)c1ccc2c(c1)oc(=O)n2C
    /, 0.0
- CCN(CC)C(=O)Oc1ccccc1NC(C)=O
    i, -1.2
- Fc1ccccc1N1CCN(CCCNc2ccc3nncn3n2)CC1
    /, 0.0
- CN1C(=O)NC(NC(=O)C2CCCCC2)(C(F)(F)F)C1=O (stereo unspecified)
    i, 1.9
- Cc1ccc(C2N(c3ccc(F)cc3)C(=O)C3CCCN32)cc1 (stereo unspecified)
    /, 16.1
- CC1(C)CC2CC(C)(CN2C(=O)c2cc(-c3ccccc3O)on2)C1 (stereo unspecified)
    /, 0.2
- CN(CC(=O)Nc1ccc2c(c1)OCCO2)S(=O)(=O)c1cccc2cccnc12
    /, -1.8
- O=C(O)Cn1c(SC2CCCCC2)nc2ccccc21
    /, -3.3
- CS(=O)(=O)N1CCCC(C(=O)NCCc2ccc(Cl)cc2)C1 (stereo unspecified)
    /, 0.5
- COc1ccc(-c2nnc(SCC(=O)NC(=O)NCc3ccco3)o2)cc1
    i, -0.7
- CN(C)c1oc(-c2ccccc2Cl)nc1S(=O)(=O)c1ccccc1
    /, 1.0
- CC(C)(C)NC(=O)CSc1nnc(-c2ccccn2)n1-c1ccccc1
    i, -1.0
- Cc1ccc(N2CCN(c3cc(C)nc4nc(C)nn34)CC2)c(C)c1
    /, 2.1
- CC(C)n1nc(C(=O)Nc2nc3ccc(S(C)(=O)=O)cc3s2)c2ccccc2c1=O
    i, -3.4
- CC(C)OC(=O)c1cc(NC(=O)C2C3CCC(O3)C2C(=O)O)cc(C(=O)OC(C)C)c1 (stereo unspecified)
    i, -1.1
- Cc1ccc(NS(=O)(=O)c2cn(C)cn2)cc1
    i, -1.4
- Cc1cc(C)c2c(N)c(C(=O)N3CCN(c4ncccn4)CC3)sc2n1
    i, -4.0
- Cc1cc(C)nc(NS(=O)(=O)c2ccc(Br)s2)c1
    /, -1.6
- CC12CC(NC(=O)N1c1cccc(C(=O)N3CCN(c4ccccc4)CC3)c1)c1ccccc1O2 (stereo unspecified)
    /, -0.6
- COc1nc(N2CCOCC2)nc(-n2cccc2)n1
    i, 0.8
- CCN1CCN(C(=O)CCN2C(=O)COc3ccc(C)cc32)CC1
    /, -0.9
- CCn1c(CCNC(=O)c2cccs2)nnc1SCC(=O)c1ccc(OC)cc1
    i, 1.2
- CN1CCN(C(=O)CCC(=O)c2ccc(F)cc2)CC1
    i, 2.9
- CC1(C)S[C@@H]2[C@H](NC(=O)[C@H](N)c3ccccc3)C(=O)N2[C@H]1C(=O)O
    i, -0.3
- Cc1ccc(C)c(S(=O)(=O)NCc2ccc(C(=O)N3CCN(C)CC3)cc2)c1
    i, -0.3
- O=C(Nc1cc(N2CCOCC2)ncn1)NC1(C(F)(F)F)Oc2ccc(Cl)cc2O1 (stereo unspecified)
    /, 0.8
- CCOc1ccccc1N1CC(O)=C(c2nc3ccccc3s2)C1=N
    i, 21.4
- COc1ccc(-c2nnn(CC(=O)c3ccc4c(c3)OCCO4)n2)cc1OC
    i, 1.2
- O=C(NCc1ccc(F)cc1)c1ccc(CS(=O)(=O)Cc2ccccc2F)o1
    /, -1.4
- O=C(O)c1ccc(-n2nc(C(F)(F)F)c3c2-c2ccoc2CC3)cc1
    i, 0.6
- CCOC(=O)C1=C(c2ccccc2)Nc2nc(C)nn2C1c1cccc(OC)c1OC (stereo unspecified)
    i, 1.6
- O=C(CSc1nnc(Cc2cc(=O)[nH]c(=O)[nH]2)n1-c1ccc(F)cc1)NC1CCCC1
    /, -1.0
- CCN1CCn2c3c(c4cc(Br)ccc42)CCCC31 (stereo unspecified)
    /, 0.2
- CCCN1CCN(CCCNC(=O)Cn2cc3c(n2)CCCC3)CC1
    /, -0.8
- CCOC(=O)N1CCC(Nc2c(-c3ccc(C)c(C)c3)c(=O)c2=O)CC1
    /, -0.1
- COc1ccc(OC)c(C2C(C(N)=O)=C(C)Nc3nc(CCCO)nn32)c1 (stereo unspecified)
    /, -0.5
- S=c1nc(-c2ccccc2)n(CCCn2ccnc2)c2c1CCCC2
    /, -1.1
- Cc1cc(C(=O)Nc2c(F)cc(F)cc2Br)no1
    i, -2.0
- O=C(O)c1ccc2noc(-c3ccccc3)c2c1
    i, 0.0

Next section
Each structure is followed by: VCAM-1 rise, Proteasome disasm
- COCCN1Cc2cccc(C(=O)Nc3c(C)cccc3C)c2C1=O
    /, -1.6
- CCC(=O)N1CCN=C1SCc1ccc(Cl)cc1
    i, -0.6
- CCC(C)N=C1SCC(C)(/C=N/O)S1 (stereo unspecified)
    i, 0.7
- Cc1ccc2c(c1)N(CCC(=O)NCc1cccnc1)C(=O)CO2
    /, -0.7
- CCn1c(=O)c2cc(C(=O)N3CCOCC3)sc2c2ccccc21
    /, 1.8
- COc1ccc(Cc2nnn(CC(=O)O)n2)cc1
    /, -2.4
- O=C1CCCN1CN(C(=O)c1ccc2c(c1)OCO2)c1ccc(F)cc1
    /, 0.1
- CCOc1c(OC)cccc1C1CC(=O)Nc2cc3c(cc21)OCCO3 (stereo unspecified)
    /, 0.5
- CCSc1nnc(NC(=O)C(CC)(C(F)(F)F)C(F)(F)F)s1
    i, 9.6
- CCOCCCNC(=O)C1c2ccccc2C(=O)N2CCc3ccccc3C12 (stereo unspecified)
    /, 0.5
- COc1ccc(-c2ccc(=O)n(CC(=O)N3CCN(c4ccccc4OC)CC3)n2)cc1
    /, -0.5
- COC(=O)c1ccc2c(c1)NC(=O)C1CCCN21 (stereo unspecified)
    /, 6.7
- COc1ccc(CN2CN(C(C)C)CSC2=S)cc1
    /, -0.3
- CN1CC=C2C(C#N)=C(N)C(C#N)(C#N)[C@H](c3cccc(Cl)c3)C2C1 (stereo partly specified)
    i, 6.3
- COc1ccc(C2CC(=O)c3c([nH]c(C(=O)OC(C)C)c3C)C2)cc1OC (stereo unspecified)
    /, -0.1
- COc1ccc(C2CC(c3ccccc3)Nc3nc(NC(=O)c4cccs4)nn32)cc1 (stereo unspecified)
    i, -0.2
- CCN(CC)S(=O)(=O)c1ccc(C(=O)NC2=C(C(=O)OC)SCC2)cc1
    /, 0.9
- O=C(NCC1COc2ccccc2O1)C1CCCN(S(=O)(=O)c2cccc3nsnc23)C1 (stereo unspecified)
    /, -1.5
- Cc1ccc(S(=O)(=O)NC(=O)NN2CCCCCC2)cc1
    i, 0.2
- COc1cccc(OCC(=O)NC2CCCCC2)c1
    /, 1.4

Compound activity deposited in PubChem by several laboratories.
